Screening results deposited in PubChem by several laboratories.
UCH37 inh – blocks the human deubiquitinase UCH37. Q9Y5K5. purified proteasome/UCH37, Ub-AMC cleavage fluorescence. inhibition, % (no concentration beside the values). 0.33% of 330,000 active. AID 588478;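 active means mean of two replicates above 20%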;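 further: 0% = compound-free wells with enzyme and 100% = wells lacking proteasome; stock transfer was 100 nL into about 20 µL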
Target sequence (Q9Y5K5 whole entry, looked up): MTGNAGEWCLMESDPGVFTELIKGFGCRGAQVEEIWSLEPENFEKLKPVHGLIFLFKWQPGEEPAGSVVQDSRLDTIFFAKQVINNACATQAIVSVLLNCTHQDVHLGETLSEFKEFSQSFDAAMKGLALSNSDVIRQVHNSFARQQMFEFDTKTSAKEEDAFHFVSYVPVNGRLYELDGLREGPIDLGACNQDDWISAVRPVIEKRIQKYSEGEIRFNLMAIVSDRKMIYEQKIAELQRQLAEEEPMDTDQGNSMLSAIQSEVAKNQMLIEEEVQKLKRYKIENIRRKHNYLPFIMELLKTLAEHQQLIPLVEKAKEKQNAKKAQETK
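Test system – human UCH37 enzyme supplied as purified proteasome complex · Incubation – 30 min preincubation with enzyme, 25 min cleavage at room temperature · Detection – AMC fluorescence from Ub-AMC cleavage, excitation 355 nm, emission 460 nm · Benchmarks – no-proteasome wells (full inhibition) and compound-free wells (no inhibition)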
Ecoli growth – E. coli growth inhibition; OD600 absorbance (no concentration beside the values); 0.21% of 330,000 active; Escherichia coli growth, OD600, 23 h; hits give low values; AID 1053175;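 active means OD600 absorbance below the run mean of sample wells minus 3.6 SD, in any replicate, cut at about 0.56 in these data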;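 further: stock transfer was 300 nL into about 60 µL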
Vif TR-FRET – inhibitors of Vif binding to APOBEC3G peptide, primary screen, biochemical, TR-FRET, GST-Vif 1-94, biotin-A3G peptide, dose response retest (AID 1117319); TR-FRET GST-Vif / biotin-A3G peptide binding; higher % means a stronger effect; test concentration not given here; strong numbers were not always called active; one-dose inhibition, %; IC50 in µM for titrated hits; 0.57% of 260,000 active;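 active means above the screen mean plus three standard deviations and confirmed in dose response; inconclusive means results disagree or hit not tested in dose response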;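 further: Vif residues 1-94 fused to GST binding biotinylated APOBEC3G peptide 110-148; 0% = full assay without inhibitor and 100% = GST in place of GST-Vif; retest series ran down from 100 µM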
LANA-H2A inh – blocks KSHV LANA binding to histone H2A/H2B. Q9QR71. cell-free LANA-H2A/H2B peptide, fluorescence polarization. inhibition, % (concentration not given with the values). 0.6% of 320,000 active. AID 2629; in the data active means inhibition mostly above about 10%, no sharp cut-off; inactive means mostly below about 6.7%;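 further: stock transfer was 7.5 nL into about 10 µL; 0% = median of vehicle wells and 100% = median of positive control wells; one replicate is shown; the record names a cut of 25% in any replicate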
B2AR ag – human beta-2 adrenergic receptor agonism by FAP; P07550; Am2.2-beta2AR cells, FAP receptor internalization, flow cytometry; reference of the scale not given here; response, % (concentration not given with the values); 0.43% of 340,000 active;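 active means response above a set limit, near 3 SD of response in nonfluorescent compounds, cut at about 42% in these data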;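 further: stock transfer was 100 nL into about 11 µL; a reference agonist was the positive control; negative values mostly stem from fluorescent compounds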
A1 inh – inhibitors of the anti-apoptotic protein A1, read as caspase activation. MEF A1-2A-BIM cells, Caspase-Glo 3/7 luminescence, 3 h; percent of clofoctol response, vehicle zero. caspase activation, % (no concentration beside the values). 0.066% of 330,000 active. AID 2462;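 active means over half of replicate activation scores above 10%, or exactly half above 10 with the replicate mean above 10; inconclusive means replicate mean below 10 yet half the replicates above 10; inactive means over half of replicates below 10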;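 further: wells of about 30 µL received 50 nL stock; many hits fall short of the cut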
HNF4A DNA FP – change in binding of human HNF4 alpha to DNA | activity change, % at 10 µM | 0.3% of 360,000 active | HNF4a-FITC DNA binding, fluorescence polarization, 1 h | P41235; in the data active means activity change above about 30%, passing the limit was not always enough;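 further: controls were the assay level and a saturating level of protein; the project sought stronger binding though the title names inhibitors; some compounds called inactive have numbers as strong as hits; positive values seem to mean higher polarization but the record does not say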
Target sequence (P41235 whole entry, looked up): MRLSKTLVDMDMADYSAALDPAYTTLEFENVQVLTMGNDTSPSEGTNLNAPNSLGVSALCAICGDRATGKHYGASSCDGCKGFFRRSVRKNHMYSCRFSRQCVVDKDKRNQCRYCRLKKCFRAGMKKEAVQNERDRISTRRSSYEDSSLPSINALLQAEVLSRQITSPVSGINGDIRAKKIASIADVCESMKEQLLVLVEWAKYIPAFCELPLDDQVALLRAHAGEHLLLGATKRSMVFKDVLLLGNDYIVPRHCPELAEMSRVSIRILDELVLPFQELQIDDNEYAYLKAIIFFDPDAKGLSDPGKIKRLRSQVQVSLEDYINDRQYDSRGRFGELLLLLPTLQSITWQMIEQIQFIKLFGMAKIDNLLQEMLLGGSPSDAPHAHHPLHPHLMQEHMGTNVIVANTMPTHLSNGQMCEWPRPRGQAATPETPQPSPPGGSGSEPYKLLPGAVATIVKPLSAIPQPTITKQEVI
* marks the source's active call; other numbers are inactive results; i = inactive; ? = inconclusive; . = not tested or not shown; & = joins results of further samples.

SMILES	UCH37 inh	Ecoli growth	Vif TR-FRET	LANA-H2A inh	B2AR ag	A1 inh	HNF4A DNA FP
CC1CN(C(=O)c2ccccc2C(=O)c2ncc[nH]2)CC(C)O1 (stereo unspecified)	3.9	0.691	-0.8%	1.5	2.3	0.3	0.4
CC(C)c1ccc(NC(=O)CSc2nc(=O)[nH]c3c2CCCC3)cc1	1.7	0.604	3.5%	3.6	-12.0	0.4	0.2
COc1cccc(NC(=S)NN2CCN(C)CC2)c1	4.0	0.724	1.8%	2.2	11.4	0.5	-1.2
COc1ccc(-c2noc(CCC(=O)Nc3cc(OC)ccc3OC)n2)cc1	5.8	0.74	-4.2%	2.1	-1.3	-0.7	-0.9
COc1ccc(CCNC(=O)NC2CCCCC2)cc1OC	2.0	0.648	0.1%	1.3	11.3	1.3	3.0
Cc1c(NC(=O)c2cccc(NC(=O)c3ccco3)c2)cccc1C(=O)O	0.6	0.666	1.5%	-2.6	2.6	-0.5	1.8
S=c1[nH]nc([C@@H]2C[C@H]2c2ccccc2)n1-c1ccccc1	0.8	0.679	-5.7%	-4.1	3.6	0.0	0.7
CN1CCC(NC(=O)c2cccc(Oc3ccccc3)c2)CC1	5.0	0.694	.	1.0	4.3	0.0	-2.7
N/C(=N\NC(=O)c1cccs1)c1cc2ccccc2oc1=O	.	.	?	-0.7	10.0	-0.2	-0.2
Cc1onc(-c2ccccc2)c1C(=O)NNC(=S)NC(=O)c1ccc(Br)cc1	2.2	0.693	.	.	-2.2	-0.6	0.1
CC1CCCC(C)N1C(=O)COC(=O)c1ccc([N+](=O)[O-])o1 (stereo unspecified)	17.9	0.672	0.1%	-0.8	-1.6	1.1	-1.5
O=C(Nc1ccccc1)N(C1=NCCCCS1)c1ccccc1	-0.7	0.709	30.3%	-14.7	-1.9	0.4	-0.5
O=C(c1ccc(N2CCCCC2)c([N+](=O)[O-])c1)N(Cc1ccccc1)c1ccccn1	-2.1	0.7	1.8%	0.0	-2.6	0.4	-0.6
CCOC(=O)C1=C(c2ccccc2)N=c2s/c(=C\c3cccc(O)c3)c(=O)n2C1c1cccs1 (stereo unspecified)	.	.	-5.4%&-2.2%	-1.3	20.8	-0.2	-2.4
O=C(Cc1cccs1)Nc1cccc(-c2nc3cc4ccccc4cc3[nH]2)c1	i	0.685	-5.3%	-6.9	23.6	-8.8	-1.3
COc1ccc(-c2nc(SC(C)C(=O)NC3CC3)n[nH]2)cc1 (stereo unspecified)	-3.7	0.665	-6.2%	.	-2.8	.	0.1
COC/C=C/C1=CC(=O)C[C@H](c2ccc3c(c2)OCO3)C1	1.2	.	.	0.3	13.1	-0.8	-3.0
Cc1cc(Oc2ccc(=O)n(C)n2)nc(Oc2ccc(=O)n(C)n2)n1	-0.1	0.651	?	2.5	-0.4	-0.2	2.4
CCOC(=O)N1CCN(S(=O)(=O)c2ccc(Cl)cc2)CC1	0.7	0.678	.	1.5	-9.4	-0.3	4.4
Cc1cnc(N)c2c(=O)oc3ccccc3c12	-128.3	0.686	-1.5%	-13.3	-20.9	0.1	1.3
Cc1cc(C)n2nc3nc(N4CCCCC4)nc(-c4ccco4)c3c2n1	-24.8	0.714	-3.7%	-1.6	-3.7	0.0	-22.9
N=C1C(c2nc3ccccc3c(=O)[nH]2)=C(O)CN1CCc1ccccc1	-38.4	0.746	?	-1.2	-7.0	0.4	2.3
COc1ccccc1CNC(=O)c1nnc(Cc2ccc(Cl)cc2)o1	9.2	0.706	-1.8%	1.7	-5.0	-0.6	4.5
CSCCC(NC(=O)c1ccc(Br)cc1)C(=O)O (stereo unspecified)	-0.9	0.713	6.2%	-0.6	-0.6	-0.2	-6.3
CCCN(CCC)S(=O)(=O)c1ccc(C(=O)O)cc1	4.7	0.706	18.0%	-1.9&20.8	10.2	0.5	-0.6

Additional results.
SMILES	UCH37 inh	Ecoli growth	Vif TR-FRET	LANA-H2A inh	B2AR ag	A1 inh	HNF4A DNA FP
CNc1nnc(-c2cccc(N(C)C)c2)s1	-31.2	0.698	20.7%	-1.9	5.2	-0.8	-0.5
Cc1ccc(N=C2CCCN2Cc2ccccc2)c(C#N)c1	-0.3	0.651	-3.5%	-5.5	-7.3	0.2	-1.2
CSCCC(NC(=O)c1ccccc1Cl)C(=O)NNC(=O)c1ccncc1 (stereo unspecified)	-2.0	0.724	0.4%	-2.2	-2.5	0.6	-3.1
O=C(NCc1ccccc1)C1CC2CCCC(C1)C2=O (stereo unspecified)	2.8	0.724	12.3%	1.1	-1.6	0.1	1.8
O=C(Nc1ccc(S(=O)(=O)Nc2ncccn2)cc1)C12CC3CC(CC(Cl)(C3)C1)C2	1.9	0.725	9.7%	8.0	0.8	-1.8	3.3
O=C(CCNS(=O)(=O)c1cccc2nonc12)NC1CCCCC1	-0.2	0.708	-1.4%	1.0	-11.2	0.0	-3.7
OCCNc1ncnc2c1c(-c1ccccc1)c(-c1ccccc1)n2Cc1ccco1	-13.0	0.708	-4.2%	-2.6	-10.6	1.5	-1.8
Nc1cc2cccnc2cc1Cl	-26.5	0.683	3.2%	.	3.1	.	5.3
O=C(CSc1cccc[n+]1[O-])Nc1ccc(Cl)cc1F	2.3	0.662	.	-0.6	-3.5	-0.2	2.5
Cc1nc(-c2cc(C#N)c(Sc3cccc(C(F)(F)F)c3)nc2C)cs1	3.7	0.673	-11.1%	3.1	-3.1	-0.4	-1.2
COc1ccc(NC(=S)NCCC2=CCCCC2)cc1OC	2.1	0.659	5.9%	6.8	-0.5	-0.1	-5.8
COc1ccc(-c2cc(C(=O)N3CCN(c4ccc(F)cc4)CC3)no2)cc1	-0.9	0.674	.	1.3	0.9	0.0	-1.0
COc1ccccc1NC(=O)Nc1nc(CC(=O)Nc2ccc(N(C)C)cc2)cs1	3.7	0.686	6.0%	-1.9	12.0	0.3	0.0
COCCNC(=O)C(=O)NCC1OCCCN1S(=O)(=O)c1cccs1 (stereo unspecified)	3.1	0.697	26.7%	0.1	-0.3	0.4	0.9
CCn1c(C)nc2cc(C(=O)NNC(=S)Nc3ccc(OC)cc3)ccc21	-1.2	0.674	.	1.6	2.0	0.5	-2.2
CSc1ccc(-c2sc(Nc3ccccc3)n[n+]2-c2ccc(F)cc2)cc1	1.4	.	.	-1.7	-2.4	-0.6	.
CCOc1ccc(NC(=O)N(C2CCCCC2)C(C)c2cccnc2)cc1 (stereo unspecified)	6.4	0.785	-0.9%	1.1	8.5	0.5	0.8
CC(OC(=O)C1=COCCO1)C(=O)Nc1cccc(S(=O)(=O)N2CCOCC2)c1 (stereo unspecified)	0.8	0.692	-4.4%	-1.7	7.5	1.5	0.8
CSCCC(NC(=O)c1ccccc1Br)C(=O)N1CCCC(C(F)(F)F)C1 (stereo unspecified)	3.6	0.72	.	3.0	-8.6	0.0	-0.3
CCOc1cccc(NC(=O)CC#N)c1	2.5	0.683	5.2%	2.2	2.3	-0.2	0.5
O=C(Nc1ccc2ccccc2c1)c1cccnc1	2.7	0.712	-0.2%	1.6	1.9	-0.3	-0.1
O=C1CSC2=NCN(c3ccc4c(c3)OCO4)CN12	1.9	0.646	10.9%	0.8	4.3	1.5	-0.2
O=c1oc2cc(Oc3c([N+](=O)[O-])cc(C(F)(F)F)cc3[N+](=O)[O-])ccc2c2c1CCCC2	i	0.664	10.8%	0.5	10.4	-0.1	-0.8
Cc1cc(=O)oc2c1ccc1ccccc12	-129.5	0.68	-1.0%	-0.6	-3.2	-0.2	-3.1
COc1cc(/C=N/NC(=O)c2cc3ccccc3cc2O)ccc1OCCN1CCCCC1	.	.	16.1%	2.1	7.6	-0.4	12.8

(continued)
SMILES	UCH37 inh	Ecoli growth	Vif TR-FRET	LANA-H2A inh	B2AR ag	A1 inh	HNF4A DNA FP
CC(=O)c1cccc(CN2CCN(C3CCCCC3)C(CCO)C2)c1 (stereo unspecified)	4.6	0.655	27.3%	3.4	6.3	0.5	1.0
c1ccc(-c2cn3c(n2)CCc2ccc4cccnc4c2-3)cc1	.	.	11.3%	1.5	0.1	-1.5	1.8
CSc1nsc(SCC(=O)Nc2nc3ccccc3s2)n1	-0.5	0.7	.	-0.7	6.9	-1.9	1.8
Nn1c(SCc2nc3ccccn3c2Br)nnc1-c1cccnc1	1.9	0.739	-3.1%	-2.7	-2.7	1.6	3.5
CC(=O)NCCNC(=O)CNC(=O)c1ccc(Cl)cc1	0.1	0.68	.	-2.2	8.3	1.1	1.1
Cc1cc(C)c(NC(=O)CN2CCN(c3ccccn3)CC2)c(C)c1	-0.1	0.649	-5.0%	6.5	-3.8	0.1	1.8
O=C1Nc2ccccc2/C1=N/N=C/c1cccc(O)c1	.	.	7.8%	1.9	5.6	1.6	2.6
CCCCNc1nc(Cl)nc(Nc2ccc(C)cc2)n1	7.8	0.704	.	-1.2	-4.5	-0.3	0.9
CC(=O)Nc1ccc(C(=O)OCc2ccccc2Br)cc1	2.3	0.65	-9.7%	0.5	-3.9	-0.1	-1.0
N=C1C(c2nc3ccccc3s2)=C(O)CN1NC(=O)c1c[nH]c2ccccc12	.	.	-30.4%	5.9	1.8	0.8	8.1
COc1ccc(O)c(/C=N/n2c(-c3ccco3)csc2=Nc2cccnc2)c1	.	.	6.8%	2.2	6.3	-0.6	-2.0
CC(=O)Nc1ccc(S(=O)(=O)NCCNS(=O)(=O)c2ccc(NC(C)=O)cc2)cc1	2.5	0.695	.	-4.8	-0.5	0.8	-1.5
CCCCNC(=O)c1cc(S(=O)(=O)N2CCCCC2)oc1C	1.5	0.701	-1.3%	-5.6	-4.7	0.1	0.7
O=C(CN1CCc2ccccc2C1)c1cccs1	3.4	0.781	4.5%	0.3	4.9	1.5	-1.5
N#Cc1ccc(C(=O)Nc2cc(S(=O)(=O)N3CCCC3)ccc2OCC(F)(F)F)cc1	-2.2	0.67	.	2.9	-1.8	0.5	-0.7
COc1ccc(NC(=O)C2CCCO2)cc1Cl (stereo unspecified)	-0.8	0.65	-1.7%	5.4	1.9	-3.2	5.4
Cc1ccc(S(=O)(=O)c2nc(-c3ccccc3)oc2N2CCC(C(N)=O)CC2)cc1	0.8	0.718	.	-10.3	8.6	-0.2	-0.6
OCC1(CO)CC2(C1)CC(CO)(CO)C2	3.1	0.662	-4.4%	.	-6.4	.	4.5
CC(=O)C(C)n1c(CN2CCN(C(=O)c3ccco3)CC2)nc2c1c(=O)n(C)c(=O)n2C (stereo unspecified)	0.3	0.671	-1.8%	-2.5	1.2	-0.6	0.5
O=C1C2C3C=CC(CC3)C2C(=O)N1c1ccc(Cl)cc1 (stereo unspecified)	1.0	0.688	1.4%	-7.0	5.2	0.0	-1.8
O=C(NCc1ccc2c(c1)OCO2)c1cnc2n(c1=O)CCS2	4.2	0.722	-5.9%	-2.7	-26.3	0.0	2.8
OCc1ccnc(Cl)c1	1.1	0.698	6.7%	5.7	3.4	-0.1	0.2
O=c1cc(CSc2nnc(-c3cccnc3)n2-c2ccccc2F)nc2sccn12	4.5	0.678	4.8%	-0.6	-0.2	1.6	-3.5
O=c1cc(-c2ccc(F)cc2)oc2ccccc12	-5.5	0.751	-2.0%	6.4	-0.2	0.0	-0.8
CCOC(=O)C(=O)/C(=C\N(C)C)c1onc(-c2c(Cl)cccc2Cl)c1C(=O)OC	8.2	0.717	-0.9%	-3.8	13.9	1.4	0.5
O=P(Cc1ccccc1)(c1ccccc1)c1ccccc1	0.5	0.703	14.0%	-2.6	-0.2	-0.1	2.3
O=C(/C=C/c1ccccc1)CC(O)(c1ccccc1)C(F)(F)F (stereo unspecified)	2.0	0.612	0.8%	4.4	38.9	0.6	-1.7
S=c1nc(-c2cccc(Br)c2)[nH][nH]1	1.9	0.691	-4.6%	-3.9	11.1	-0.7	-1.1
